Screening data from PubChem BioAssay.
Bfl-1 A1 inh = inhibitors of the anti-apoptotic protein A1, read as caspase activation. MEF A1-2A-BIM cells, Caspase-Glo 3/7 luminescence, 3 h; percent of clofoctol response, vehicle zero. caspase activation, % (concentration not given with the values). actives 0.066% (n = 330,000);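 active = over half of replicate activation scores above 10%, or exactly half above 10 with the replicate mean above 10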;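 also: wells of about 30 µL received 50 nL stock; many hits fall short of the cut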
FGF22 binding = shifts melting point of recombinant human FGF22; recombinant FGF22 thermal shift, SYPRO orange fluorescence; percent of sucrose octasulfate shift, DMSO zero; calls only at 9.99 µM; actives 1.5% (n = 340,000);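 active = melting point raised past a set limit in the mean and every replicate; three in four hits are not shown here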
Target sequence (Q9HCT0 whole entry, looked up): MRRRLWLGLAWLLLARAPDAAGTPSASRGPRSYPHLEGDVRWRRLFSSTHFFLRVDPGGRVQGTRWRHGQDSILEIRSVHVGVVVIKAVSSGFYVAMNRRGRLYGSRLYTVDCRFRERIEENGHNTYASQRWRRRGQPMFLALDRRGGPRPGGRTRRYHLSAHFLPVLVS
UCH37 inh = human UCH37 deubiquitinating enzyme inhibition; purified proteasome/UCH37, Ub-AMC cleavage fluorescence; inhibition, % (test concentration not listed); actives 0.33% (n = 330,000); AID 588478;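 active = mean of two replicates above 20%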;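 also: 0% = compound-free wells with enzyme and 100% = wells lacking proteasome; stock transfer was 100 nL into about 20 µL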
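assay system = human UCH37 enzyme supplied as purified proteasome complex | amount = proteasome at 0.15 nM in the dispensed enzyme solution | schedule = 30 min compound-proteasome preincubation then 25 min substrate reaction, room temperature | measured by = fluorescence, ex 355 nm, em 460 nm | benchmarks = no-proteasome wells (full inhibition) and compound-free wells (no inhibition)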
T cruzi inh = blocks replication of Trypanosoma cruzi | T. cruzi beta-gal in NIH3T3, luminescence, 90 h | inhibition, % (concentration not given with the values) | actives 1.4% (n = 300,000);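 active = mean inhibition across valid replicates above about 55%, limit read from the data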;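 also: signal also drops with host cell toxicity which is not excluded here; 0% = plate median of DMSO wells and 100% = zero luminescence signal; higher percent means less beta-gal luminescence so fewer parasites; stock transfer was 50 nL into about 50 µL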
rRNA inh HTS = selective bacterial rRNA inhibition in E. coli. E. coli WT GFP vs humanized-ribosome RFP mutants, fluorescence, 24 h; stronger effect = lower value; DMSO median 0, no signal -100. GFP signal change (wild-type ribosome), % (concentration not given with the values). actives 1.6% (n = 350,000). AID 720706;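 active = significant combined selectivity score with lowered wild-type GFP, culture density cut under 30%, mutant RFP and density less affected; inactive = any of these conditions unmet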; also: one replicate is shown; some compounds called inactive have numbers as strong as hits
MLL AF4-AF9 inh = MLL-AF4/AF9 protein interaction inhibition. AlphaScreen, biotin-AF4 peptide binding to FLAG-AF9. actives 0.47% (n = 350,000). inhibition, % at 10 µM;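 active = every replicate reaching a set inhibition limit, whatever the replicate mean, cut at about 25% in these data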;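 also: 0% = plate neutral control median and 100% = total signal loss; the record names both 10 and 1 µM as test concentration; the first replicate is given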
Target sequence (P42568 whole entry, looked up): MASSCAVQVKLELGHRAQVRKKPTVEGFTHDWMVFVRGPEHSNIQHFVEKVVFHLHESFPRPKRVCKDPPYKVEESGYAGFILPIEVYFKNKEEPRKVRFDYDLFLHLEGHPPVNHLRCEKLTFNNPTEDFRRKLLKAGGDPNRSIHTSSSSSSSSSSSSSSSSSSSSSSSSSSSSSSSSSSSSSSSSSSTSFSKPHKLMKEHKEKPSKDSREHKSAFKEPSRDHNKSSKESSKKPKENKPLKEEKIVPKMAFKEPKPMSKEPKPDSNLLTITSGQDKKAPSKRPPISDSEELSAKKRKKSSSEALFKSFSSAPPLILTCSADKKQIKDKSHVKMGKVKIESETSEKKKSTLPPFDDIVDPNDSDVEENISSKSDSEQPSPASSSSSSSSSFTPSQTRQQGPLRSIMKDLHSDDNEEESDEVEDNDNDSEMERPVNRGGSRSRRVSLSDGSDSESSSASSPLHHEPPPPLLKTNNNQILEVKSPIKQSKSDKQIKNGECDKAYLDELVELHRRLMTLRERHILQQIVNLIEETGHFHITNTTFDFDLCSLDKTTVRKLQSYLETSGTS
E coli growth = E. coli growth inhibition | Escherichia coli growth, OD600, 23 h; stronger effect = lower value | OD600 absorbance (test concentration not listed) | actives 0.21% (n = 330,000);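 active = OD600 absorbance below the run mean of sample wells minus 3.6 SD, in any replicate, cut at about 0.56 in these data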;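 also: stock transfer was 300 nL into about 60 µL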
Beta cell apopt = blocks beta cell apoptosis; INS-1E cytokine-induced death, ATP luminescence, 48 h; percent of positive-control rescue, neutral wells zero; protection from apoptosis, % (no concentration beside the values); actives 0.8% (n = 300,000);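 active = all replicates at 75% or more, or half of them and the mean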;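 also: 0% = cytokine-treated negative control wells and 100% = positive control rescue; higher means more ATP so stronger rescue from cytokine killing; wells of about 40 µL received 100 nL stock; the first replicate is given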
rRNA inh HTS OD600 = second read-out of rRNA inh HTS, no call of its own (marks repeat the call); OD600 change, %; measured here: OD600 growth;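 optical density of the mix in the first replicate; 0 = DMSO median and -100 = no signal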
rRNA inh HTS RFP = also measured in rRNA inh HTS; calls as there; RFP signal change, %; measured here: RFP humanized mutant strains;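 first replicate; 0 = DMSO median and -100 = no signal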
Active calls of the source: *; i = inactive; nt = not tested or not shown.

canonical_smiles,Bfl-1 A1 inh,FGF22 binding,UCH37 inh,T cruzi inh,rRNA inh HTS,rRNA inh HTS OD600,rRNA inh HTS RFP,MLL AF4-AF9 inh,E coli growth,Beta cell apopt
C#CCOCCOCCOCCNc1nc(N2CCN(C(=O)Cn3cc(CCCCN)nn3)CC2)nc(N2CCN(C(=O)[C@H]([C@@H](C)CC)n3cc(CCCN=C(N)N)nn3)CC2)n1,0.1,i,-2.4,nt,8,7,-6.9,-28,nt,-2
COc1ccccc1N1CCN(C2CC(=O)N(c3ccc(F)cc3)C2=O)CC1 (stereo not given),1.0,i,5.6,-6,5,9,-0.1,3.2,0.67,-3
COc1cc(OC)nc(Oc2cccc(C(F)(F)F)c2)n1,0.8,i,1.2,-2,2,9,-0.9,-27,0.68,0
Cc1ccc(NC(=O)CN2C(=O)C3CC=C(Cl)CC3C2=O)cc1 (stereo not given),0.4,i,2.3,-11,1,5,-2.6,1.6,0.71,6
Cn1ncc(Cl)c1C(=O)N/N=C/c1cccc(OC2CSC2)c1,0.7,i,nt,-5,9,27,-0.1,3.2,nt,-1
CCOC(=O)C1=C(N)OC2=C(C(=O)CCC2)C1c1ccccc1OCC (stereo not given),-0.1,nt,3.8,1,nt,nt,nt,nt,0.7,4
O=C(c1ccc(F)cc1)N1CCC(C(=O)N2CCN(c3ncccn3)CC2)CC1,1.0,i,0.6,nt,6,8,3.4,9.7,0.68,-2
COc1ccccc1NC(=O)COc1ccc(-c2nn(C)c(=O)c3ccccc23)cc1,0.4,i,4.0,-13,-10,-28,4.7,4.1,0.69,1
Nc1nc(-c2ccc3c(c2)OCCO3)c(CC(=O)O)s1,-3.1,i,8.4,11,-2,0,1.3,-1.5,0.66,0
CC(=O)Nc1ccc(S(=O)(=O)Nc2ccc(NC(=O)c3ccco3)cc2)cc1,0.6,nt,1.0,-9,nt,nt,nt,nt,0.69,-4

Ordered by molecular weight (high to low): part of the list above
canonical_smiles,Bfl-1 A1 inh,FGF22 binding,UCH37 inh,T cruzi inh,rRNA inh HTS,rRNA inh HTS OD600,rRNA inh HTS RFP,MLL AF4-AF9 inh,E coli growth,Beta cell apopt
C#CCOCCOCCOCCNc1nc(N2CCN(C(=O)Cn3cc(CCCCN)nn3)CC2)nc(N2CCN(C(=O)[C@H]([C@@H](C)CC)n3cc(CCCN=C(N)N)nn3)CC2)n1,0.1,i,-2.4,nt,8,7,-6.9,-28,nt,-2
COc1ccccc1NC(=O)COc1ccc(-c2nn(C)c(=O)c3ccccc23)cc1,0.4,i,4.0,-13,-10,-28,4.7,4.1,0.69,1
CC(=O)Nc1ccc(S(=O)(=O)Nc2ccc(NC(=O)c3ccco3)cc2)cc1,0.6,nt,1.0,-9,nt,nt,nt,nt,0.69,-4
COc1ccccc1N1CCN(C2CC(=O)N(c3ccc(F)cc3)C2=O)CC1 (stereo not given),1.0,i,5.6,-6,5,9,-0.1,3.2,0.67,-3
Cn1ncc(Cl)c1C(=O)N/N=C/c1cccc(OC2CSC2)c1,0.7,i,nt,-5,9,27,-0.1,3.2,nt,-1
Nc1nc(-c2ccc3c(c2)OCCO3)c(CC(=O)O)s1,-3.1,i,8.4,11,-2,0,1.3,-1.5,0.66,0

The list goes on.
canonical_smiles,Bfl-1 A1 inh,FGF22 binding,UCH37 inh,T cruzi inh,rRNA inh HTS,rRNA inh HTS OD600,rRNA inh HTS RFP,MLL AF4-AF9 inh,E coli growth,Beta cell apopt
CC(CC(=O)NCc1ccccc1)C1CCCO1 (stereo not given),0.1,nt,0.3,-4,nt,nt,nt,nt,0.76,-1
CSCCC(NC(=O)c1ccccc1Cl)C(=O)N1CC(C)OC(C)C1 (stereo not given),0.2,i,1.9,nt,26,12,0.4,-0.2,0.63,-1
COC(=O)C(Nc1ccccc1Cl)(c1cc(C)c(O)c(C)c1)C(F)(F)F (stereo not given),0.2,nt,-5.7,14,nt,nt,nt,nt,0.72,9
NNC(=O)c1cccc(Cn2cc(Br)c([N+](=O)[O-])n2)c1,0.3,i,2.0,46,-11,10,-7.0,-1.8,0.64,0
Cc1ccc(CC(=O)N(C)CC(=O)Nc2ccc(N3CCOCC3)cc2)cc1C,-0.4,i,0.7,-12,4,3,-1.4,1.1,0.62,-5
CCOc1nc(Nc2ccc(OC)cc2)nc(N2CCOCC2)n1,0.4,i,0.2,28,11,15,0.6,8.7,0.7,-7
Oc1ccccc1C1=Nc2ccccc2N=C(c2cccs2)C1,-1.1,i,3.7,-4,-13,-14,-13,15,0.77,11
C=CCOc1ccc(C2NC(=S)NC3=C2CCc2ccccc23)cc1 (stereo not given),-0.3,i,2.5,-44,nt,nt,nt,1.7,0.62,0
Cc1cccc(OCC(=O)Nc2cccc(O)c2)c1,0.5,nt,2.2,15,nt,nt,nt,nt,0.66,2
CC(C)C(=O)OCC(=O)Nc1ccc2c(c1)CCC2,-0.5,nt,0.1,-3,nt,nt,nt,nt,0.74,-3
CCN1CCN(C(=O)c2cc(S(=O)(=O)Nc3ccc(S(C)(=O)=O)cc3)ccc2Cl)CC1,-0.4,i,2.5,-4,18,14,4.2,-0.2,0.67,-3
C/C(CCc1ccccc1)=N\NC(=O)c1ccccc1,0.3,i,nt,-4,9,3,-2.1,-1.3,nt,0
COCCN1Cc2cccc(C(=O)Nc3cc(OC)ccc3OC)c2C1=O,-1.0,nt,3.6,10,nt,nt,nt,nt,0.62,-5
Cc1ncc(CN2CCN(C(C)C)C(CCO)C2)s1 (stereo not given),-0.2,i,2.8,5,3,4,-1.6,-2.0,0.68,-3
CCCCn1c(N)c(N(CC(C)C)C(=O)c2ccc([N+](=O)[O-])o2)c(=O)[nH]c1=O,-0.1,i,4.7,nt,4,16,2.9,-1.4,0.71,-6
O=S(=O)(c1cccc2nsnc12)N1CCN(C/C=C\c2ccccc2)CC1,0.4,i,5.1,18,-9,-14,-11,14,0.69,0
O=C(Cn1c(C(F)(F)F)nc2ccccc21)NCCN1CCCC1,0.4,nt,3.7,-4,nt,nt,nt,nt,0.76,-6
O=C(CNCc1ccccc1)Nc1cccc(Cl)c1Cl,-0.5,i,3.7,5,-21,-40,-7.2,-4.5,0.6,nt
Cc1ccnc(NS(=O)(=O)c2ccc(NC(=O)c3oc4ccc(F)cc4c3C)cc2)n1,0.0,i,3.7,nt,0,-1,0.3,-1.7,0.73,-1
CC(C)CC(c1nnnn1C1CCCCC1)N1CCN(c2ncccn2)CC1 (stereo not given),0.2,nt,3.1,11,nt,nt,nt,nt,0.71,-4

Profiles, looked up by structure:
Record of CCN1CCN(C(=O)c2cc(S(=O)(=O)Nc3ccc(S(C)(=O)=O)cc3)ccc2Cl)CC1 : Bfl-1 A1 inh: -0.4; FGF22 binding: i; UCH37 inh: 2.5; T cruzi inh: -4; rRNA inh HTS: 18; rRNA inh HTS OD600: 14; rRNA inh HTS RFP: 4.2; MLL AF4-AF9 inh: -0.2; E coli growth: 0.67; Beta cell apopt: -3
Record of O=C(CNCc1ccccc1)Nc1cccc(Cl)c1Cl : Bfl-1 A1 inh: -0.5; FGF22 binding: i; UCH37 inh: 3.7; T cruzi inh: 5; rRNA inh HTS: -21; rRNA inh HTS OD600: -40; rRNA inh HTS RFP: -7.2; MLL AF4-AF9 inh: -4.5; E coli growth: 0.6; Beta cell apopt: nt

Next entries
canonical_smiles,Bfl-1 A1 inh,FGF22 binding,UCH37 inh,T cruzi inh,rRNA inh HTS,rRNA inh HTS OD600,rRNA inh HTS RFP,MLL AF4-AF9 inh,E coli growth,Beta cell apopt
O=[N+]([O-])c1ccc(N2CCCCC2)nc1N1CCCCC1,0.1,i,6.6,30,-40*,-16*,2.0*,19,0.71,nt
CCC(Sc1nc2ncccc2[nH]1)C(=O)NCCc1ccccc1 (stereo not given),0.0,i,3.9,-4,2,-3,-1.7,5.1,0.75,9
Cc1ccc(S(=O)(=O)N(C)c2ccc(OC(=O)c3cccs3)cc2)cc1,-0.3,i,-0.2,nt,8,-4,0.8,-5.5,0.74,1
Cc1cc(C)c(NC(=O)CCCN2CCCC2)c(C)c1,-0.5,i,4.7,10,4,9,-1.1,1.0,0.69,-3
CCOc1ncccc1C(=O)OCC(=O)Nc1ccc(C(C)C)cc1,-0.3,i,-0.3,-8,-3,-8,7.8,0.5,0.65,-7
Cc1onc(C(=O)N2CCC(Cc3ccccc3)CC2)c1[N+](=O)[O-],nt,i,2.9,7,-11,-26,-1.9,3.1,0.7,nt
Cc1ccc(C(=O)N/C(=C\c2ccco2)C(=O)NCCCn2ccnc2)cc1C,-0.9,i,9.4,-14,11,4,0.9,5.0,0.72,0
CCN1CCN(C(=O)c2nn(-c3ccc(OC)cc3)c(=O)c3c2c2ccccc2n3C)CC1,-0.1,i,2.3,25,2,12,0.1,-0.1,0.68,2
Cc1[nH]c2c([N+](=O)[O-])cccc2c1C,0.0,i,7.4,8,5,-4,-1.7,-2.2,0.65,nt
CC(C)NC(=O)C(Sc1ccccc1)c1ccccc1 (stereo not given),0.5,nt,2.2,-11,nt,nt,nt,nt,0.67,-1
COCCNC(=O)CN1CCC(NC(=O)Nc2ccc(C(F)(F)F)cc2)CC1,-0.1,nt,7.5,8,nt,nt,nt,nt,0.66,6
CCc1ccc(OCc2nnc(SCC(=O)NCc3ccco3)o2)cc1,0.5,nt,-0.8,-3,nt,nt,nt,nt,0.72,-12
Cc1ccc(-c2c(CC(=O)O)c(C)nc3sc4c(c23)CCCC4)cc1,1.6,i,-0.7,-14,-2,-16,5.0,6.1,0.67,-4
N#C/C(=C\c1c[nH]c2ccccc12)C(=O)NC1CC1,-0.4,i,nt,-8,-10,-2,-0.5,-4.1,nt,4
Cc1ccc(S(=O)(=O)NC(C(=O)Oc2ccc3c(C)c(Cl)c(=O)oc3c2)c2ccccc2)cc1 (stereo not given),-1.8,nt,-279,-26,nt,nt,nt,nt,0.66,-4
Cc1noc(C)c1S(=O)(=O)Nc1ccc(C(=O)N2CCCCC2)cc1,1.6,nt,-0.2,-16,nt,nt,nt,nt,0.68,-8

These rows are one share of the data; rates above refer to the full screens.
